Source: PubChem (several laboratories)
Calb FLC: affects C. albicans growth with fluconazole; hit rate 0.57% among 300,000; C. albicans CaCi-2 (fluconazole-resistant clinical isolate) + fluconazole, Alamar Blue growth, 48 h; AID 1979; growth inhibition, % (no concentration beside the values);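 active = most replicates above 75%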;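 note: all wells also contain fluconazole at 8 µg/ml as a sub-toxic cotreatment; 0% = median of DMSO wells and 100% = median of geldanamycin control wells; wells of about 8 µL received 7.5 nL stock; the first replicate is given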
rRNA inh HTS: inhibitors of bacterial rRNA selective over humanized ribosomes; E. coli WT GFP vs humanized-ribosome RFP mutants, fluorescence, 24 h; hits give low values; DMSO median 0, no signal -100; GFP signal change (wild-type ribosome), % (concentration not given with the values); hit rate 1.6% among 350,000;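 active = significant combined selectivity score with lowered wild-type GFP, culture density cut under 30%, mutant RFP and density less affected; inactive = any of these conditions unmet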; note: one replicate is shown; some compounds called inactive have numbers as strong as hits
A1 inh: inhibitors of the anti-apoptotic protein A1, read as caspase activation. MEF A1-2A-BIM cells, Caspase-Glo 3/7 luminescence, 3 h; percent of clofoctol response, vehicle zero. caspase activation, % (no concentration beside the values). hit rate 0.066% among 330,000. AID 2462;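 active = over half of replicate activation scores above 10%, or exactly half above 10 with the replicate mean above 10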;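 note: wells of about 30 µL received 50 nL stock; many hits fall short of the cut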
Beta apoptosis: beta cell apoptosis inhibition. INS-1E cytokine-induced death, ATP luminescence, 48 h; percent of positive-control rescue, neutral wells zero. protection from apoptosis, % (concentration not given with the values). hit rate 0.8% among 300,000. AID 435005;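 active = all replicates at 75% or more, or half of them and the mean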;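 note: 0% = cytokine-treated negative control wells and 100% = positive control rescue; higher means more ATP so stronger rescue from cytokine killing; wells of about 40 µL received 100 nL stock; the first replicate is given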
LANA-H2B inh: blocks KSHV LANA binding to histone H2A/H2B | cell-free LANA-H2A/H2B peptide, fluorescence polarization | inhibition, % (test concentration not listed) | hit rate 0.6% among 320,000 | AID 2629; in the data active = inhibition mostly above about 10%, no sharp cut-off; inactive = mostly below about 6.7%;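 note: stock transfer was 7.5 nL into about 10 µL; 0% = median of vehicle wells and 100% = median of positive control wells; one replicate is shown; the record names a cut of 25% in any replicate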
Target sequence (Q9QR71 whole entry, looked up): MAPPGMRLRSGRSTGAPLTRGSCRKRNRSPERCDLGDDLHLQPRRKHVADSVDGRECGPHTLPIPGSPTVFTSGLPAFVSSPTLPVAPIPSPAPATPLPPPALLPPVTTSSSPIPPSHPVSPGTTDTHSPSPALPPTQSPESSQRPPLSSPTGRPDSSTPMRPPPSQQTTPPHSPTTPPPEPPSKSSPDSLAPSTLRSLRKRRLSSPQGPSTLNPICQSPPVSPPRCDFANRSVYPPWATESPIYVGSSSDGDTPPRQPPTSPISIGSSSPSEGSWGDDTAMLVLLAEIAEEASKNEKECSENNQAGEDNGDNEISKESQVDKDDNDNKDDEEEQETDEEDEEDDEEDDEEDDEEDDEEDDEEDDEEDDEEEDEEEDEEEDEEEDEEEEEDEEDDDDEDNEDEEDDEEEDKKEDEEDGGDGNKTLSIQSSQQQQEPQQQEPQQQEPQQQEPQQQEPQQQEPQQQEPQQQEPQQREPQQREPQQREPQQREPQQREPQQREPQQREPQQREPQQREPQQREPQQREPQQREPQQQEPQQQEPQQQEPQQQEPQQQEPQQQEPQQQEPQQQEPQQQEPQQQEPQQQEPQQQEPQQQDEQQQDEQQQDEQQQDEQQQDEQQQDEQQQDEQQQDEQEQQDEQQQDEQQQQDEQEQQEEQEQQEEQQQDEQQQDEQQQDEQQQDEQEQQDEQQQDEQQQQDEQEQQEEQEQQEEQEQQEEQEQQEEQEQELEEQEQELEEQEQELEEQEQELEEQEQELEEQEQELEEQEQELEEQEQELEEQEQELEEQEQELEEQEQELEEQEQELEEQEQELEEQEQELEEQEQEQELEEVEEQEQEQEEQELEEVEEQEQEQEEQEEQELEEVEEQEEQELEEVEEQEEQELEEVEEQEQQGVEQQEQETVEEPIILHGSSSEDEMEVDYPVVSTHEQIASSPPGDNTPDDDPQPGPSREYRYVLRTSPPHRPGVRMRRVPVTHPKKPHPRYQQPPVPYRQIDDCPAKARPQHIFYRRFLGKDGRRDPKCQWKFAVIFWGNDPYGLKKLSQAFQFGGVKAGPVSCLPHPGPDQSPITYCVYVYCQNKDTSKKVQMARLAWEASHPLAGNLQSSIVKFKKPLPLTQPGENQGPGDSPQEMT
T cruzi inh: blocks replication of Trypanosoma cruzi; T. cruzi beta-gal in NIH3T3, luminescence, 90 h; inhibition, % (concentration not given with the values); hit rate 1.4% among 300,000; AID 1885;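 active = mean inhibition across valid replicates above about 55%, limit read from the data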;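 note: signal also drops with host cell toxicity which is not excluded here; 0% = plate median of DMSO wells and 100% = zero luminescence signal; higher percent means less beta-gal luminescence so fewer parasites; stock transfer was 50 nL into about 50 µL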
ALR inh: human ALR oxidase inhibition via reduced H2O2; P55789; purified ALR, DTT oxidation, H2O2 HRP-luminol luminescence; inhibition, % (no concentration beside the values); hit rate 3.8% among 290,000; AID 485317;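 active = mean and each replicate at 75% or more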;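 note: stock transfer was 7.5 nL into about 7.5 µL; 0% = neutral wells and 100% = wells with inactivated enzyme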
B2AR ag: agonists of human beta-2 adrenergic receptor inducing internalization; response, % (concentration not given with the values); P07550; Am2.2-beta2AR cells, FAP receptor internalization, flow cytometry; reference of the scale not given here; hit rate 0.43% among 340,000;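 active = response above a set limit, near 3 SD of response in nonfluorescent compounds, cut at about 42% in these data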;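 note: stock transfer was 100 nL into about 11 µL; a reference agonist was the positive control; negative values mostly stem from fluorescent compounds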
rRNA inh HTS OD600: further read-out of rRNA inh HTS, marked with its call; OD600 change, %; measured here: OD600 growth;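 optical density of the mix in the first replicate; 0 = DMSO median and -100 = no signal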
rRNA inh HTS RFP: recorded beside rRNA inh HTS, whose call it bears; RFP signal change, %; measured here: RFP humanized mutant strains;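 first replicate; 0 = DMSO median and -100 = no signal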
An asterisk follows results filed as active; · = not tested or not shown. The list is partial; rates above refer to the full screens.

SMILES	Calb FLC	rRNA inh HTS	rRNA inh HTS OD600	rRNA inh HTS RFP	A1 inh	Beta apoptosis	LANA-H2B inh	T cruzi inh	ALR inh	B2AR ag
O=C(CCN1CCN(CCO)CC1)Nc1ccccc1	11	17	18	4.4	0.7	-12	6.1	0	-1	1
Cc1cc(NCc2ccccn2)n2c(nc3ccccc32)c1C#N	18	-7	11	0.2	·	·	·	0	·	-20
COc1cnc(N(C)C)nc1Sc1cccc(Cl)c1	-8	·	·	·	-1.1	-8	-1.2	4	-11	6
O=C1NC(c2ccccc2)=C(c2ccc3ccccc3n2)C(c2ccncc2)N1 (configuration not stated)	-2	·	·	·	-0.7	·	-0.9	6	-1	1
CCc1ccc2[nH]cc(S(=O)(=O)c3ccc(C)c(C)c3)c(=O)c2c1	16	16	8	1.6	-0.1	·	-3.2	28	2	4
CCOC(=O)C1=C(C)N(CCCCCC(=O)O)C(=O)NC1c1cccc([N+](=O)[O-])c1 (configuration not stated)	-2	3	12	-3.0	-0.3	0	-3.3	-10	·	2
COc1ccc(NC(=O)CCN2CCN(S(=O)(=O)c3ccc(OC)cc3)CC2)cc1	4	2	2	-1.3	-1.3	-6	4.7	5	-8	-2
Cc1cccc(C(C)C)c1NC(=O)CN1C(=O)NC(Cc2ccccc2)C1=O (configuration not stated)	·	10	22	-0.2	0.7	0	-1.5	-3	3	-7
CC1(C)CC(=O)C(C(O)c2ccc([N+](=O)[O-])cc2)C(C)(C)N1 (configuration not stated)	8	-6	2	8.8	2.6	5	-0.7	3	-11	3
Cc1ccc(OCC(=O)OC(C)CN2CCCCC2)cc1 (configuration not stated)	3	3	8	-3.0	0.1	-8	1.0	-16	-3	-3
CC(=O)C1C(c2ccc(F)cc2)C2C(C)=NN=C2CC1(C)O (configuration not stated)	3	5	1	4.6	1.4	1	8.3	-6	2	7
C=CCC(C#N)(c1ccc(OC)c(OC)c1)c1cnccn1 (configuration not stated)	2	4	1	-0.3	-0.9	-3	-6.8	-3	-4	6
Nc1ccc2c(c1)OC1(CCCC1)O2	13	1	13	-1.8	0.5	2	-3.9	-1	40	10
Cc1nnc(SCC(=O)NC(C)(C)C)n1CCc1ccccc1	6	·	·	·	0.1	-8	-41	15	-7	2
N#Cc1cccnc1N1CCN(C(=O)c2ccco2)CC1	14	17	8	4.1	0.3	1	0.3	-13	10	-3
CN(CC1CCOCC1)C(=O)CC1C(=O)NCCN1Cc1ccc(Cl)c(F)c1 (configuration not stated)	12	7	3	4.3	·	·	·	5	·	-2
O=C(CCC(=O)c1ccc(Cl)cc1)NCc1ccccc1	2	-2	-6	-0.7	-0.1	-5	-4.3	-44	-25	0
COc1ccc(NC(=O)CN2C(=O)COc3ccccc32)cc1OC	6	0	3	1.2	0.9	2	2.4	-4	-4	-2
CCN(CC)c1ccc(NC(=S)NC(=O)Cc2ccccc2)cc1	7	·	·	·	0.4	·	0.8	9	17	-1
CNC(=O)C1CC(=O)N(c2ccc(OCC(=O)N3CCCC3)cc2)C1 (configuration not stated)	-34	2	13	-1.9	0.0	-1	2.3	-15	3	5
CCOc1ncccc1C(=O)Nc1cccc(-n2cnnn2)c1C	·	8	-1	-1.7	0.4	1	-1.2	·	-10	4
CCN(CC)S(=O)(=O)c1ccc(C(=O)Nc2nnc(COC)o2)cc1	-5	10	4	2.2	0.1	0	6.9	-11	9	3
O=C(CC1CCCCC1)NCCOc1ccccc1	-13	·	·	·	0.1	1	-0.7	-10	0	-2
O=C(O)c1ccc(CSc2nnc(COc3ccccc3)o2)cc1	0	-13	-21	-8.3	-0.6	-7	-1.9	-11	-19	3

Two of these compounds in another layout:
> COc1ccc(NC(=O)CN2C(=O)COc3ccccc32)cc1OC
  Calb FLC = 6
  rRNA inh HTS = 0
  rRNA inh HTS OD600 = 3
  rRNA inh HTS RFP = 1.2
  A1 inh = 0.9
  Beta apoptosis = 2
  LANA-H2B inh = 2.4
  T cruzi inh = -4
  ALR inh = -4
  B2AR ag = -2
> O=C(O)c1ccc(CSc2nnc(COc3ccccc3)o2)cc1
  Calb FLC = 0
  rRNA inh HTS = -13
  rRNA inh HTS OD600 = -21
  rRNA inh HTS RFP = -8.3
  A1 inh = -0.6
  Beta apoptosis = -7
  LANA-H2B inh = -1.9
  T cruzi inh = -11
  ALR inh = -19
  B2AR ag = 3

Remaining list, next part.
SMILES	Calb FLC	rRNA inh HTS	rRNA inh HTS OD600	rRNA inh HTS RFP	A1 inh	Beta apoptosis	LANA-H2B inh	T cruzi inh	ALR inh	B2AR ag
COc1ccc(-n2c(SCC(=O)Nc3ccccc3C)nc(O)c(Cc3ccccc3)c2=O)cc1	17	5	8	-0.2	-0.8	-5	1.6	21	88*	9
COc1cc(OC)c2ccc(=O)oc2c1C(CC(=O)N1CCOCC1)c1ccc2c(c1)OCO2 (configuration not stated)	1	-1	3	-3.3	-0.4	-10	-1.5	-7	·	-2
O=S(=O)(Cc1ccccc1Cl)NCCc1ccccc1	-17	-29	-33	-6.5	0.0	-3	5.7	2	6	-2
Cc1ccc(/C=C2\SC(=O)N(CCC(=O)N3CCN(C)CC3)C2=O)cc1	25	2	-9	-0.8	0.1	-4	2.2	31	-2	10
COCCCN(Cc1ccccn1)S(=O)(=O)Cc1ccccc1	4	·	·	·	1.1	2	-0.3	·	-6	-8
CC(=O)Nc1cc(C(=O)OCC(=O)c2ccc(Cl)cc2Cl)ccc1C	-1	·	·	·	-0.6	-12	1.2	-14	11	-11
O=C(NCCc1ccccc1)C(=O)c1c(-c2ccccc2)[nH]c2ccccc12	-4	-2	-13	-1.9	0.8	16	1.7	19	-6	7
Cc1ccnc(NS(=O)(=O)c2ccc(N3C(=O)c4c(Cl)c(Cl)c(Cl)c(Cl)c4C3=O)cc2)n1	-5	·	·	·	0.1	-8	4.1	-2	6	-4
O=C(NC(=S)N1CCOCC1)c1cc2ccccc2o1	-7	7	-8	-4.8	0.9	-5	-3.0	-3	-1	1
c1ccc(-n2ncc3c(NCc4cccnc4)ncnc32)cc1	-7	·	·	·	-1.3	1	-1.4	52	-1	-2
COc1ccc(-c2nn3c(-c4ccccc4)nnc3s2)cc1	52	·	·	·	0.1	6	-0.8	12	0	-8
Nc1c(C(=O)O)sc2nc3c(cc12)CCCC3	-11	-8	-6	0.1	0.9	-8	-0.8	-25	·	-1
Cc1ccc(C(C)C)c(OCC(=O)OCc2c(C)noc2C)c1	7	-6	-7	-4.1	-0.1	1	3.0	-3	6	0
CN(C)/C=C(\C(=O)c1cccc(Cl)c1)c1nnnn1-c1ccccc1	1	-4	-6	2.4	-0.1	1	2.8	-9	2	3
O=C(CSc1nnc(-c2ccc(F)cc2)o1)NC1CCCCC1	1	6	6	-1.8	-0.2	2	-2.4	-6	-3	-6
O=C(CN1C(=O)COc2ccc(S(=O)(=O)N3CCCC3)cc21)NC1CCCCCCC1	-27	·	·	·	1.2	3	3.9	6	-19	·
COc1ccccc1Cn1c(=S)[nH]c2cc(C(=O)N3CCN(c4ccccc4OC)CC3)ccc2c1=O	-3	8	18	-1.9	1.0	-6	2.1	-28	-2	6
COc1ccc(NS(=O)(=O)c2cccc(NC(=O)COc3ccccc3[N+](=O)[O-])c2)cc1	·	7	8	5.4	0.3	-5	-3.1	·	-5	2
O=C(O)c1cccc(NS(=O)(=O)c2cccc3nsnc23)c1	-15	12	5	-9.1	1.4	-2	0.9	-15	-5	-3
CC(=O)[C@H]1CC[C@H]2[C@@H]3C=CC4=CC(=O)CC[C@@]4(C)[C@@H]3CC[C@]12C	·	-46	-60	-11	0.5	0	-0.6	·	-3	3
COc1cc2c(cc1N/C=C(\C#N)c1nc(-c3ccccc3)cs1)oc1ccccc12	3	6	10	-0.6	-0.1	4	0.9	4	17	7
COc1ccccc1NCCC(=O)OCC(=O)Nc1cc([N+](=O)[O-])ccc1F	·	-16	1	-1.0	-0.2	4	-0.9	·	93*	-2
Nc1c(C(=O)NC2CCCC2)sc2nc(-c3cccs3)ccc12	2	·	·	·	-0.8	5	1.0	15	39	14
Fc1ccc(CNc2ccc(N3CCN(Cc4ccccc4)CC3)cc2)cc1	-75	-6	18	-4.8	1.6	7	0.5	2	89*	2
Clc1cccc(Nc2ncnc3ccc(Br)cc23)c1	17	-36	-43	-3.7	0.6	19	-1.8	18	-2	-2
COc1ccc(-c2cn(-c3ccc(C)c(Cl)c3)c(=S)[nH]2)cc1OC	9	-2	-3	0.2	-1.0	4	5.4	35	·	9
CCN(CC)C(=O)c1ccc2c(c1)nnn2C	0	4	0	-0.3	-0.3	-1	-1.2	-7	-3	12
Cc1c(CN2CCN(c3cccc(C(F)(F)F)c3)CC2)c(=O)n(-c2ccccc2)n1C	-11	·	·	·	0.7	4	4.6	1	-2	4
Cc1ccc(Cl)c2c1NC(=O)C2=O	·	2	11	1.1	0.5	-22	2.9	·	3	-7
O=C(COc1ccccc1F)N1CCc2ccccc2C1	-10	6	-2	1.4	0.3	-6	-2.7	-16	-7	4
O=C(CNc1ccccc1)N/N=C/c1c(O)ccc2ccccc12	27	-2	-2	-0.2	-1.7	84*	3.4	11	-10	2
COc1cc(Br)c(-c2sc(Nc3ccccc3)n[n+]2-c2ccccc2)cc1OC	-6	-3	-11	18	0.7	-6	-3.6	0	-8	-12
CCOC(=O)[C@H]1[C@H]2COc3ccc(Cl)cc3[C@@H]2N2C(=O)c3ccc(C)cc3NC(=O)[C@@]12C	·	-10	-22	-1.8	-1.1	3	2.5	·	·	-2
CCCCN(CCCNC(=O)c1c(C)cc(=O)oc1C)c1ccccc1	15	·	·	·	-0.7	-9	0.1	36	99*	-4
Cc1cc2nccc(-c3ccc(OCCCF)cc3)n2n1	5	-8	0	-1.6	0.3	-3	0.8	8	43	-4
CC(C)C(=O)Nc1c2c(nn1-c1ccc(F)cc1)CSC2	-6	7	9	-0.8	1.9	1	6.0	0	1	-2
CCOc1ccccc1C(=O)Nc1cc2c(cc1N1CCCC1)n(CC)c(=O)n2CC	-3	-32	-60	3.1	-0.3	10	2.9	1	99*	31
Cc1cccc(OCC(=O)NNC(=O)c2cc3ccccc3oc2=O)c1	1	·	·	·	0.3	-4	-4.7	·	-2	3
CCOC(=O)c1c(NC(=O)COc2ccccc2)sc2c1CC(C)(C)NC2(C)C	-6	9	1	1.8	0.1	-9	-1.0	29	·	13
CN(C)S(=O)(=O)c1ccc(C(=O)NNC(=O)C23CC4CC(CC(C4)C2)C3)cc1	·	·	·	·	0.6	-9	0.6	·	-2	2
COc1ccccc1NC(=O)c1sc2nc3n(c(=O)c2c1C)CCC3	-3	5	10	-4.1	1.0	1	1.9	2	0	-2
Cc1nn(-c2cccc(Cl)c2)c2c1C(c1cccnc1)C(C#N)=C(N)O2 (configuration not stated)	1	·	·	·	-2.1	-4	-3.3	6	63	2
N#Cc1c(N)nc2c(c1-c1ccc(F)cc1)CCC2	1	8	9	-2.1	-0.9	-1	4.4	-17	-5	16
Cc1ccc(S(=O)(=O)NCC2CCC(C(=O)NCc3cccnc3)CC2)cc1 (configuration not stated)	12	0	-7	-14	1.5	-7	2.4	-10	-5	-2
Nc1c(-c2ccc(Cl)cc2)cnn1-c1ccccc1	-22	-15	-1	-2.4	-7.9	·	-0.1	8	·	-3
S=C(NC1CCCCC1)N1CCN(C2CCCCC2)CC1	-5	2	1	0.6	1.0	3	2.1	3	·	-7
